Compound activity (PubChem BioAssay)
D2 potentiator – potentiates the human D2 dopamine receptor allosterically | P14416 | DiscoveRx D2 beta-arrestin cells, luminescence, 90 min; 100% = 57 uM dopamine signal | potentiation, % (no concentration beside the values) | actives 0.23% (n = 360,000) | AID 624464; active = potentiation of 50% or more; inconclusive = 30% to 50%; inactive = 30% or less;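 note: compound concentration not given in the record; tested on top of an EC20 dose of dopamine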
Target sequence (P14416 whole entry, looked up): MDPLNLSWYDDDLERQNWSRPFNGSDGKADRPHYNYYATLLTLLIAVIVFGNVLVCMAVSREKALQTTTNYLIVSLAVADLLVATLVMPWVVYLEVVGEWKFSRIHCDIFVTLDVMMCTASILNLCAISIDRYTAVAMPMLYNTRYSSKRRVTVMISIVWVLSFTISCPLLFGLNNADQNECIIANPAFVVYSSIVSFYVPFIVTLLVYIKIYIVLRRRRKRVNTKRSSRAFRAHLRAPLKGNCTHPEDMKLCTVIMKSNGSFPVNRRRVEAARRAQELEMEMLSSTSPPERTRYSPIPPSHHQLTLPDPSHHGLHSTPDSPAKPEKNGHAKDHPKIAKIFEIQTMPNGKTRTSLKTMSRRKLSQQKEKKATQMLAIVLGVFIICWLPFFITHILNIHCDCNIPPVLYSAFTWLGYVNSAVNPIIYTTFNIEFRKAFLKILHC
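PathHunter D2 cells, attached overnight at 37 deg C, received compound in DMSO plus dopamine at EC20 (50 nM final) for 90 min at 37 deg C. Beta-arrestin recruitment was read as luminescence after 1 h with detection reagent at ambient temperature.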
TRPV1 PAM – human TRPV1 potentiation. actives 0.02% (n = 320,000). AID 540277. TRPV1-expressing cells, Fluo-8 calcium influx, capsaicin EC20 potentiation; host cell line not named in the record; control for the full effect not named in the record. potentiation, % at 8.33 µM; active means potentiation above 80%; inconclusive means 30% to 80%; inactive means below 30%; note: 0% is about no effect
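Fluo-8 calcium influx in TRPV1-expressing cells, kinetic read (ex 480/em 520 nm). Compound added and read 3 min for agonist activity, followed by capsaicin at EC20 final and 2 min further read for enhancement.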
gsp agonist – activates gsp, the McCune-Albright syndrome mutation; gsp mutant cells, cAMP HTRF, 30 min; control for the full effect not named in the record; Potency, µM (doses to about 76.9 µM), for inactives: top-dose activation (cAMP increase), hits mostly activators; actives 0.13% (n = 340,000); AID 624287; active = well fitted activation curve with a large enough effect; inconclusive = small, poorly fitted or top-dose-only effect, or another doubt; inactive = no such curve, though single readings can be large or run the other way; cell line not stated here;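 note: phosphodiesterase inhibitor Ro 20-1724 added with compounds to block cAMP breakdown; potency is the fitted concentration of half-maximal effect; nearly all actives have a fitted effect of over 60% in size; about a fifth of the inactives were tested at one dose only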
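Cells in DMEM/10% FBS with G418 were pretreated with compounds in DMSO plus […] (300 uM stock) for 30 min at 37C. cAMP was measured by HTRF (cAMP-d2 plus anti-cAMP antibody-K) after 30 min at room temperature.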
Menin-MLL FL inh – menin-MLL binding inhibition, fluorescein peptide. FP activity change, % at 61.4 µM. Fluorescence polarization, fluorescein-MLL peptide displacement from menin. 290,000 tested, under 10 active; inconclusive = falling polarisation curve, or a change in total fluorescence; inactive = total fluorescence flat and polarisation flat or rising; no compound was filed as active; the % refers to the polarisation; negative = inhibition;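 note: % of control where 0% means no effect; inhibitors lower the polarisation; unlabelled MLL peptide was the positive control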
gsp antagonist – antagonizes gsp, the McCune-Albright syndrome mutation; actives 0.4% (n = 340,000); Potency, µM (highest dose often 76.9 µM), without a hit: at the top dose activity change, negative = inhibition, most hits filed as inhibitors; gsp-mutant cells, cAMP HTRF, 30 min; control for the full effect not named in the record; active = falling curve of any shape with a large fitted effect; inconclusive = falling curve, mostly with a smaller effect; inactive = flat or rising curve; cell line not stated here;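 note: intracellular cAMP measured with PDE inhibitor Ro 20-1724 present during compound exposure; potency is the fitted concentration of half-maximal effect; % is set by controls: 0 for no effect and ±100 for the full control effect; nearly all actives have a fitted effect of over 65% in size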
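HTRF cAMP read-out (cAMP-d2 plus anti-cAMP antibody-K in lysis buffer, 30 min RT). Before lysis, cells are exposed to compounds with […] for 30 min at 37C in DPBS containing Ca/Mg, BSA and Tween 20.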
Sfp inh – blocks B. subtilis Sfp PPTase activity | Q9F4F7 | Biochemical Sfp PPTase activity, qHTS | Potency, µM, for inactives: max response, negative = inhibition, actives largely listed as inhibitors | actives 3.5% (n = 310,000) | AID 1490; active = well fitted inhibition curve with a large enough effect; inconclusive = small, poorly fitted or top-dose-only effect, or another doubt; inactive = no such curve, though single readings can be large or run the other way;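 note: the enzyme is Sfp with the accession as filed and its product quenches rhodamine fluorescence; potency is the fitted concentration of half-maximal effect; 0% = enzyme reaction without inhibitor and -100% = no enzyme wells; top concentration of the series not given in the record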
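Fluorescence-quenching assay: 15 nM Sfp-PPTase preincubated 15 min at room temperature with compound, then 5 uM rhodamine-CoA and 12.5 uM BHQ-2-labelled YbbR peptide added. Fluorescence (ex 525/em 598 nm) read at start and after 30 min; difference gives rate.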
ClpP mod – qHTS Assay for Activators of ClpP | ATP-dependent Clp protease proteolytic subunit (Bacillus subtilis (strain 168)), P80244 | purified B. subtilis ClpP, FRET peptide cleavage, 20 min | Potency, µM (titrated, usually from 57.5 µM), without a hit: at the top dose activity change, negative = active | actives 1.9% (n = 340,000) | AID 651965, 2013; active = well fitted falling curve with a large enough effect; inconclusive = small, poorly fitted or top-dose-only effect; inactive = no such curve, though single readings can be large or run the other way; note: potency is the fitted concentration of half-maximal effect; the source files actives as falling curves though it sought activators and does not explain the sign; nearly all actives have a fitted effect of over 65% in size; many hits overshoot -100%
Target sequence (P80244 whole entry, looked up): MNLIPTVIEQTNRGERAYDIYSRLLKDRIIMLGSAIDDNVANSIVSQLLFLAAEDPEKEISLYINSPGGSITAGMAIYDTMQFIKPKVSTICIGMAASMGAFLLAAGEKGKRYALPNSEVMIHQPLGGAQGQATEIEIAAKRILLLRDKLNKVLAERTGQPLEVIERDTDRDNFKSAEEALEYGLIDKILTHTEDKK
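FRET quenching reversal measured ClpP activation: 10 microg/mL B. subtilis ClpP at pH 8 with the FRET-FV decapeptide, read at 430 nm after 320 nm excitation. The 20-min minus 0-min signal was scaled between DMSO/no-enzyme wells and ADEP (5.8 microM final).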
Starred values were filed as active, the others as inactive; ? = inconclusive; · = no result given; & = joins results of further samples; [ ] = dose if it differs, or a comment.

SMILES	D2 potentiator	TRPV1 PAM	gsp agonist	Menin-MLL FL inh	gsp antagonist	Sfp inh	ClpP mod
O=C1CN(CCN2CC(=O)N(Cc3ccccc3)C(=O)C2)CC(=O)N1Cc1ccccc1	-7	·	-40%[inhibitor]	·	·	·	-0.7%
O=S(=O)(c1ccc2nnn(O)c2c1)N1CCCCC1	-8	7	4%[15.4 µM]	3.2	9%	7%	·
C/C(=N\Nc1cc(N2CCOCC2)ncn1)c1ccccc1	-2	28	-34%[inhibitor]	-3.9	-1%	5%	-2.4%
CC(C)(C)CC(=O)N[C@@H](Cc1ccccc1)c1nc2ccccc2[nH]1	-1	-19	-6%	-6.9	9%	-3%	·
CC(C)CC(C(=O)O)N1C(=O)[C@@H]2[C@H](C1=O)[C@@H]1C[C@H]2C(Br)C1Br (stereo not given in full)	-8	6	-49%	3.1	-6%	0%	0.7%
Cc1c(C(=O)N/N=C/c2cccnc2)nnn1-c1nonc1N	-1	12	4%[15.4 µM]	-16	2%	5%	·
CC(C)C(=O)c1cn(CC(=O)NCC2CCCO2)c2ccccc12 (stereo not given)	-5	12	4%	-1.9	1%	18%	-9.4%
Cc1ccccc1C1(O)c2ccccc2-c2ccccc21	-23	·	-16%	·	·	·	2.5%
COc1ccccc1CNC(=O)COn1nnc2ccc(S(=O)(=O)N3CCOCC3)cc21	-21	-14	0%	·	-3%	·	-1.8%
CCCOCCOC(=O)c1[nH]c2c(c1C)C(=O)CC(c1cc(OC)ccc1OC)C2 (stereo not given)	-1	2	-8%	5.1	4%	13%	-0.1%
Cc1ccc(S(=O)(=O)N2CCN(C(C)C(=O)N3CCCc4ccccc43)CC2)cc1 (stereo not given)	-7	4	?	5.4	-4%	2%	0.4%
CCCCN(C(=O)CSCC(=O)Nc1ccc(C)cc1)c1c(N)n(Cc2ccccc2)c(=O)[nH]c1=O	-12	-8	-35%[inhibitor]	·	2%	·	-2.4%
COc1cc(C(=O)N2CCC(O)(c3ccccc3)CC2)cc(OC)c1OC	0	3	-21%	-1.1	-5%	14%	-0.1%
O=C(c1ccco1)N1CCN(c2ccc(F)cc2)CC1	-1	-7	?	2.2	13%	13%	-0.2%
CN1CC(=O)N=C1N	-3&-4	6&6	·	-2.3&-4.4	-9%&0%	16%&-7%	1.3%&0.3%
COc1ccccc1-c1nnc2sc(-c3cnccn3)nn12	-2	0	17%	3.6	4%	-9%	-1.0%
O=C(OCc1nc2ccsc2c(=O)[nH]1)c1ccc(Cl)s1	3	2	-1%	·	-5%	·	-2.2%
Cc1cccc(N2CCN(C(=O)Cc3cn(C)c4ccccc34)CC2)c1C	-16	-18	-42%[inhibitor]	-1.2	-11%	11%	-0.6%
O=[N+]([O-])c1ccc(N2CCN(c3ccc(O)cc3)CC2)c(Cl)c1	11	10	-16%	1.1	?	50µM*	3.5%
Cn1c(-c2ccc(F)cc2)cnc1NCc1cccc(F)c1	-41	1	0%	0.4	8%	?	-3.5%
O=C(Nc1ccc2c(c1)OCO2)N1CCN(C(=O)C2CCCO2)CC1 (stereo not given)	-10	3	19%	0.7	-2%	-4%	-1.7%
CCCc1cc(=O)n2nc(N3CCC(C(=O)N4CCN(c5ccc(OC)cc5)CC4)CC3)sc2n1	-9	13	-8%	·	-11%	10%	-8.9%
COc1ccc(C(=O)N/N=C(\C)c2ccc(NC(=O)Cc3ccccc3)cc2)c(OC)c1	-4	-11	9%	·	-2%	17%	?
CCCCCNC(=O)c1ccc2c(c1)ncn2-c1ccc(OC)cc1	-17	-25	-1%	-1.9	-17%	11%	·
CCCCCN(C(=O)CCC(=O)OCCOc1ccccc1Cl)c1c(N)n(CCCC)c(=O)[nH]c1=O	-11	11	4%[15.4 µM]	·	-9%	·	-0.6%
CCCCC12CN3CC(C)(CN(C1)C3c1ccc([N+](=O)[O-])o1)C2=O (stereo not given)	-19	-5	?	0.0	7%	21%	0.1%
COc1ccc(O)c(CN2CCC(n3nccc3NC(=O)C3CCCC3)CC2)c1	0	1	18%	·	-1%	1%	-5.3%
Cc1ccc(/C=C/C(=O)c2c(C)cc(C)[nH]c2=O)cc1	-7	6	-6%	3.1	5%	6%	-0.2%
Cc1ccc(S(=O)(=O)NCc2c(-c3ccccc3)c3cc(Cl)ccc3[nH]c2=O)cc1	-17	2	17%	1.8	6%	13%	-20%
Cc1ccc(C2=NC(=O)/C(=C/c3cc(O)c(O)c(Br)c3)S2)cc1	1	3	-21%	16	-1%	45µM*	·
CC(C)CCN(C(=O)Nc1ccc(Cl)cc1)C1CCN(C(C)C)CC1	-13	2	-3%[15.4 µM]	-0.7	7%	0%	·
O=C(O)C(Cc1ccc(Cl)cc1)Sc1nc2ccccc2[nH]1 (stereo not given)	-4	4	2%	-1.4	8%	-8%	·
COc1cccc(C2=NOC(C(=O)N3CCN(Cc4ccccc4)CC3)C2)c1OC (stereo not given)	-13	3	-1%	4.5	-4%	20%	-2.8%
COc1ccc(-c2csc(Nc3cccc(C)n3)n2)cc1	-9	?	19%[15.4 µM]	5.7	-4%	-2%	-2.4%
CCc1nonc1NC(=O)COc1cc(C)c(Cl)c(C)c1	-9	-8	-15%	·	-1%	10%	-1.4%
O=S(=O)(Nc1nc2ccccc2nc1-[n+]1cccc(N=C([O-])c2ccccc2Cl)c1)c1ccccc1	·	18	·	?	·	1%	·
Cc1ccc(NC(=S)N2CCN(S(C)(=O)=O)CC2)cc1C	-2	-9	-48%[inhibitor]	·	-3%	14%	2.4%
Cc1ccnc2nc(C(=O)OCC(=O)NC3CCC(C)CC3)nn12 (stereo not given)	5	0	22%	·	5%	·	-0.7%
O=C(NCc1ccc2c(c1)OCO2)C(=O)NCC1OCCCN1S(=O)(=O)c1cc(F)ccc1F (stereo not given)	-13	?	-2%	·	-7%	17%	-3.0%
CS(=O)CCC(NS(=O)(=O)c1ccccc1)C(=O)O (stereo not given)	-15	-3	-2%	0.9	2%	-18%	1.0%
Cn1c(CSCc2ccccc2)n[nH]c1=S	-6	2	4%[15.4 µM]	0.6	-3%	12%	-2.6%
CN(C)CCCC(C)(O)C(Cc1ccccc1)c1ccccc1 (stereo not given)	-29	-3	-14%	-1.1	6%	1%	2.9%
CCc1ccc(-c2nc(CN3CCC(C(=O)N4CCN(c5ccccc5)CC4)CC3)c(C)o2)cc1	-9	10	-40%[inhibitor]	1.2	8%	-16%	-2.5%
Nc1ccc(S(=O)(=O)Nc2nc3ccccc3o2)cc1	-2	-4	?	0.0	-5%	50µM*	-2.2%
O=C1c2cccnc2C(Nc2ccc(Br)cc2Br)N1Cc1cccs1 (stereo not given)	·	10	·	5.6	·	16%	·
COc1ccc(CNc2nc3nc(C)cc(C)n3n2)cc1	0	-3	?	4.2	8%	16%	?
N#CC1=C(C2CC2)CC(c2ccccc2)C(C#N)=C1N (stereo not given)	-8	-8	3%	0.7	-46%	4%	-28%
CNC(=O)C[C@@H]1C(=O)N(Cc2ccccc2)CC1(C)C	0	·	-35%	·	·	·	0.4%
CN(Cc1ccc(CNC[C@H]2O[C@@H](n3cnc4c(N)ncnc43)[C@H](O)[C@@H]2O)o1)S(C)(=O)=O	-5	·	·	·	10%	·	-1.7%
COc1ccccc1N(CC(=O)NCC1CCCO1)C(=O)CNS(=O)(=O)c1ccccc1 (stereo not given)	4	-2	?	-3.3	16%	11%	-2.9%

Remaining list, next part:
SMILES	D2 potentiator	TRPV1 PAM	gsp agonist	Menin-MLL FL inh	gsp antagonist	Sfp inh	ClpP mod
O=C(Nc1ccccc1)c1ccc(Br)o1	-14	-9	·	-0.2[94.6 µM]	-3%	4%&-5%	-0.4%
Cc1ccc(CN2CCSc3ccc(C(=O)NCC4CCCO4)cc32)cc1 (stereo not given)	-10	9	?	·	-18%	-6%	3.6%
c1ccc2oc(-c3ccc(Nc4nc(N5CCOCC5)nc(N5CCOCC5)n4)cc3)nc2c1	-10	·	?	·	6%	·	·
CC(=O)Nc1ccc(OC(=O)N2CCCC2)cc1	-1	3	5%	-1.2	10%	3%	1.5%
CCOc1ccccc1C1C(C#N)=C(N)N(N(C)C)C2=C1C(=O)CCC2 (stereo not given)	-5	-5	-7%[15.4 µM]	2.7	4%	-2%	1.5%
CC(=O)OCCc1c(C)nc2nc[nH]n2c1=O	-6	5	-47%[inhibitor]	1.0	15%	18%	-1.2%
COc1ccc(/C=N/NC(=O)CCCOc2ccc(Cl)cc2Cl)cc1	10	-33	-10%	·	-11%	-1%	-0.8%
CS(=O)(=O)N(CC(=O)N1CCCC1)c1cc(Cl)c(Cl)cc1Cl	-4	10	2%	-1.6	2%	-4%	-0.9%
Cc1csc(NC(=O)C(F)(F)F)n1	17	-5	-5%[15.4 µM]	0.8	10%	-15%	3.4%
Cc1ccc(C(=O)Nc2nnc(C3=COCCO3)o2)cc1C	-23	-6	13%[15.4 µM]	-0.4	-8%	10%	-0.8%
COc1cc(C)nc(N2CCCC(C(=O)NC3CCC(C)CC3)C2)n1 (stereo not given)	-15	-20	-37%[inhibitor]	-1.0	4%	4%	-3.0%
CCc1cc(=O)oc2c(C)c(OC(C)C(=O)NC3CC(C)(C)NC(C)(C)C3)ccc12 (stereo not given)	-8	8	12%	-0.9	3%	4%	4.0%
O=C(NC1CCCC1)C(c1ccc(F)cc1)N(Cc1ccccc1Cl)C(=O)CCl (stereo not given)	-3	-7	5%	2.2	5%	10%	-2.3%
Cc1ccccc1NC(=O)COC(=O)/C=C/c1cccc(C(F)(F)F)c1	-1	?	13%	0.3	16%	-14%	-0.2%
Cc1ccc(C)c(N2C(=O)CS/C2=N\NC(=O)c2ccccc2Cl)c1	3	6	-44%[inhibitor]	0.8	10%	6%	0.3%
O=C(O)C1=C[C@@H](O)[C@@H](O)[C@H](O)C1	1	·	·	-17	0%	-12%	-0.9%
O=c1c2cc(NC(=S)NCCN3CCCCCC3)ccc2nc2n1CCCCC2	-16	-3	11%[15.4 µM]	2.3	-2%	3%	-1.3%
COC(=O)c1ccccc1NC(=O)CSc1nncn1-c1cccnc1	6	6	14%[15.4 µM]	-5.1	-7%	6%	·

Compounds as they come, and some 5.1% of all compounds hit somewhere here.
